Source: PubChem BioAssay
Kir21 inh: inhibitors of mouse Kir2.1 inward-rectifier potassium channel | Inward rectifier potassium channel 2 (Mus musculus), P35561 | HEK293-Kir2.1, FluxOR thallium flux fluorescence; active compounds read low | B-score at 10 µM | actives 0.85% (n = 310,000);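 active = fluorescence ratio B-score at or below minus 3 SD of library scores, with starting-brightness B-score within 2 SD, cut at about -4.2 in these data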;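 note: channel flux triggered by added potassium and thallium sulfate stimulus; B-score of peak minus minimum fluorescence over baseline after thallium stimulus; more negative B-score means stronger Kir2.1 block with less thallium influx; some compounds called inactive have numbers as strong as hits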
Target sequence (P35561 whole entry, looked up): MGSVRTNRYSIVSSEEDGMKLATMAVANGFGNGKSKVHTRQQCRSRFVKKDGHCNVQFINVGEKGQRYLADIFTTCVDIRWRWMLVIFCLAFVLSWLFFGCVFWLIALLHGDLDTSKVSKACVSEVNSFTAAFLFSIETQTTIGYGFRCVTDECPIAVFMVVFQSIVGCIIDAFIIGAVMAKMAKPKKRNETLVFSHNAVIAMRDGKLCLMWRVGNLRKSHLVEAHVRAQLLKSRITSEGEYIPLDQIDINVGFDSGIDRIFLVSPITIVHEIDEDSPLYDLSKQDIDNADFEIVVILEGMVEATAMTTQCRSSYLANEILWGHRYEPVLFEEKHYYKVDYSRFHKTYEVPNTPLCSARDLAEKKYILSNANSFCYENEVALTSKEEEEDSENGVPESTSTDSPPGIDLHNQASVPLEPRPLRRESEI
* hit, by the source's call. An excerpt, and most or all hits are left out here.

What do the screens show for `c1ccc2cc(Sc3ncnc4c3oc3ccccc34)ccc2c1`?
Kir21 inh: 0.14

Results for CC(NC(=O)c1ccccc1NC(=O)c1ccncc1)c1ccccc1 (stereo unspecified) ?
Kir21 inh: 0.12

Results for CCOC(=O)C(=CNc1ccccc1Cl)C(=O)OCC ?
Kir21 inh: -0.36

How did CC1CCc2c(c3ccccc3[nH]c2=O)O1 (stereo unspecified) do in these assays?
Kir21 inh: -1.47

Results for Cc1cc(=O)n2nc(N3CCCC(C(=O)N4CCN(c5ccccc5)CC4)C3)sc2n1 (stereo unspecified) ?
Kir21 inh: 0.4

What do the screens show for `Cc1ccc(N(C(C)C(=O)Nc2ccc(S(=O)(=O)N3CCOCC3)cc2)S(C)(=O)=O)cc1` (stereo unspecified)?
Kir21 inh: -0.07

Results for COc1cc(CCC(=O)Nc2ccc(S(=O)(=O)NC3=NCCCCC3)cc2)cc(OC)c1OC ?
Kir21 inh: -1.01

Results for CCOC(=O)C1CCN(C(=O)Cc2cccs2)CC1 ?
Kir21 inh: -0.92

What do the screens show for `CCOc1ccc(NC(=O)C2CCCN(c3nc(C)cc(C)n3)C2)cc1` (stereo unspecified)?
Kir21 inh: -0.55

How did N#Cc1c[nH]n2c(=O)cc(Cc3ccccc3)nc12 do in these assays?
Kir21 inh: 1.64

Results for CC(C)n1nccc1N(Cc1ccc(Br)cc1)S(=O)(=O)c1ccccc1 ?
Kir21 inh: -0.01

Results for CCn1c(C)nc2cc(C(=O)NNC(=O)Nc3ccc(Cl)c(Cl)c3)ccc21 ?
Kir21 inh: 0

What do the screens show for `CCOC(=O)C1CCN(c2c(NCCCN(CC)Cc3ccccc3)c(=O)c2=O)CC1`?
Kir21 inh: 0.77

What do the screens show for `CCOC(=O)c1c(C)[nH]c(C)c1S(=O)(=O)NCC1CCN(Cc2ccccc2F)CC1`?
Kir21 inh: -0.54

What do the screens show for `COc1ccc(OC)c2[nH]c(=O)c(CCNC(=O)COc3ccccc3)cc12`?
Kir21 inh: -0.93

What do the screens show for `COC(=O)c1ccc(COC(=O)Cc2n[nH]c(=O)c3ccccc23)cc1`?
Kir21 inh: -0.61

How did CCC(=O)Nc1ccc(NC(=O)CSc2nnnn2-c2ccc(OC)cc2)cc1 do in these assays?
Kir21 inh: 0.82

What do the screens show for `Cc1ccccc1-c1nnc(Cc2ccccc2)o1`?
Kir21 inh: 0.35

Results for CCOc1cc(/C=C(/NC(C)=O)C(=O)O)cc(Cl)c1OCc1cccc(Br)c1 ?
Kir21 inh: -0.34

What do the screens show for `CN(c1ccccc1)c1nc(N)c([N+](=O)[O-])c(N2CCOCC2)n1`?
Kir21 inh: 0.75

Results for CCOC(=O)C1CCN(c2cc3c(cc2NC(=O)c2ccccc2F)n(C)c(=O)n3C)CC1 ?
Kir21 inh: -0.43

How did CCC(=O)NC(=S)Nc1ccc(NC(=O)c2ccco2)c(OC)c1 do in these assays?
Kir21 inh: -0.05

Results for CCOC(=O)c1sc(NC(=O)c2ccccc2F)c(C(N)=O)c1C ?
Kir21 inh: -1.12

How did CC1CCCCC1NC(=O)COC(=O)/C=C/c1ccc2c(c1)OCO2 (stereo unspecified) do in these assays?
Kir21 inh: 0.01

Results for Cn1c(SCC(=O)Nc2nc3c(s2)CCCC3)nnc1-c1ccccc1 ?
Kir21 inh: -1.66

How did CCOC(=O)C1(Cc2ccc(OC)cc2)CCN(C(=O)Cn2cnnn2)CC1 do in these assays?
Kir21 inh: -1.32

What do the screens show for `CCOC(=O)c1c(NC(=O)C2=C(C)NC(=S)NC2c2ccc(CC)cc2)sc(C)c1C` (stereo unspecified)?
Kir21 inh: -0.76

Results for CC(C)C(=O)N1CCN(c2ccc(NC(=O)c3cccs3)cc2Cl)CC1 ?
Kir21 inh: 0.05

How did COc1ccc(NC(=O)C2CCCN2S(=O)(=O)c2cccc3nsnc23)c(OC)c1 (stereo unspecified) do in these assays?
Kir21 inh: 1.75

Results for COc1ccc(CNc2nc(NCc3ccc(OC)cc3)c3[nH]cnc3n2)cc1 ?
Kir21 inh: -0.04

Entries from the list above containing bromine, in the order listed:
Results for CC(C)n1nccc1N(Cc1ccc(Br)cc1)S(=O)(=O)c1ccccc1 ?
Kir21 inh: -0.01

Results for CCOc1cc(/C=C(/NC(C)=O)C(=O)O)cc(Cl)c1OCc1cccc(Br)c1 ?
Kir21 inh: -0.34

Other entries.
Results for O=C(Nc1cc(F)ccc1F)c1cccc(-n2cnnn2)c1 ?
Kir21 inh: -0.53

Results for CCOc1ccc(NC(=S)N2CCC(NC(=O)c3ccccc3)CC2)cc1 ?
Kir21 inh: 0.02

Results for CCOC(=O)c1nc(Nc2ccc(C(=O)OC)cc2)c2ccccc2n1 ?
Kir21 inh: 0.07

What do the screens show for `CCc1ccccc1NC(=O)CN1CCN(CC(=O)Nc2ccc(-c3ccccc3)cc2)CC1`?
Kir21 inh: 1.77

How did NC(N)=Nc1nc2ccc(Br)cc2c(=O)[nH]1 do in these assays?
Kir21 inh: 1.49

Results for O=C(CN1C(=O)CSc2ncccc21)N1CCOCC1 ?
Kir21 inh: -1.92

Results for O=C(c1cccc(C(=O)N2CCN(c3ncccn3)CC2)c1)N1CCN(c2ncccn2)CC1 ?
Kir21 inh: -0.96

How did Cc1cc(C)nc(NS(=O)(=O)c2ccc(NC(=O)Cc3ccccc3F)cc2)n1 do in these assays?
Kir21 inh: 1.2

What do the screens show for `CCCCn1c(N)c(N(CCOC)C(=O)C2CCN(C(=O)c3ccc(Cl)cc3)CC2)c(=O)[nH]c1=O`?
Kir21 inh: -0.04

Results for O=C(/C=C1\NC2(CCCC2)Cc2ccccc21)N1CCOCC1 ?
Kir21 inh: -2.12

How did CC(=O)N1N=C(c2ccc(C)cc2)OC1c1ccc(Br)cc1 (stereo unspecified) do in these assays?
Kir21 inh: -0.38

Results for CCn1c(SCC(=O)Nc2nncs2)nnc1C(C)NC(=O)c1ccccc1Br (stereo unspecified) ?
Kir21 inh: 1.98

What do the screens show for `CCc1ccccc1NC(=O)N1C2CCCC1CC(NC(=O)C(C)(C)C)C2` (stereo unspecified)?
Kir21 inh: -0.62

What do the screens show for `Cc1c(NC(=O)Nc2ccc(F)cc2F)c(=O)n(-c2ccccc2)n1C`?
Kir21 inh: 0.26

How did O=C(Nc1ccc(NC(=O)c2ccco2)cc1)c1ccc2c(c1)OCCO2 do in these assays?
Kir21 inh: 0.31

How did Cc1nc2ccc([N+](=O)[O-])cc2c(=O)n1Cc1ccc(Cl)cc1 do in these assays?
Kir21 inh: 0.34

How did Cc1ccc(S(=O)(=O)N(C)CC(=O)OCC(=O)N2CC(=O)Nc3ccccc32)cc1 do in these assays?
Kir21 inh: -2.54

How did COc1cc(OC)c(C2=NOC(C(=O)Nc3c(C)nn(CC(=O)N4CCCC4)c3C)C2)cc1Cl (stereo unspecified) do in these assays?
Kir21 inh: 0.1

How did O=C1c2ccccc2C(=O)N1CCCOCc1c[nH]c(=O)[nH]c1=O do in these assays?
Kir21 inh: -0.3

What do the screens show for `CCN(CC)S(=O)(=O)c1cc(C(=O)OCC(=O)Nc2cccc(C)c2C)ccc1F`?
Kir21 inh: 0.76

How did CCOc1ccccc1C1C(C(N)=O)=C(C)Nc2nc(-c3ccc(OC)cc3)nn21 (stereo unspecified) do in these assays?
Kir21 inh: 0.06

What do the screens show for `COc1ccc(CCn2nnnc2C(CC(C)C)N2CCN(c3ncccn3)CC2)cc1OC` (stereo unspecified)?
Kir21 inh: -0.05

Results for COc1ccc(C(=O)CCC(=O)N2CCN(c3cccc(Cl)c3)CC2)cc1 ?
Kir21 inh: -0.7

Results for COc1ccccc1NC(=O)N1CCn2c(nc3ccccc32)C1 ?
Kir21 inh: -0.04

What do the screens show for `CCCCN(c1ccc(C(=O)OC)cc1)S(=O)(=O)c1ccccc1`?
Kir21 inh: -0.71

How did CCOC(=O)N1CCN(C(=O)c2ccc(NS(=O)(=O)c3ccc(F)cc3)cc2)CC1 do in these assays?
Kir21 inh: 0.06

Results for COc1cccc(OC)c1C(=O)NC(=S)Nc1ccc2oc(=O)ccc2c1 ?
Kir21 inh: 0.42

How did O=C(Nc1ccc(OC(F)(F)F)cc1)c1ccc(-n2cncn2)nc1 do in these assays?
Kir21 inh: 0.82

How did COc1ccc(C2/C(=C(/O)c3ccc(C)cc3)C(=O)C(=O)N2c2ccccn2)cc1OC (stereo unspecified) do in these assays?
Kir21 inh: 1.78

Results for CCCCn1c(N)c(N(CCOC)C(=O)c2cccc(S(=O)(=O)N3CCCCCC3)c2)c(=O)[nH]c1=O ?
Kir21 inh: -1.02

What do the screens show for `Cc1ccc(-c2nn3c(-c4ccco4)nnc3c3ccccc23)cc1S(=O)(=O)NCC1CCCO1` (stereo unspecified)?
Kir21 inh: -0.12

How did COc1ccc(-n2c(O)c(/C=N/NS(=O)(=O)c3ccc(C)c([N+](=O)[O-])c3)c3ccccc3c2=O)cc1OC do in these assays?
Kir21 inh: -13.3

Results for CCN(CC(=O)NC(C)(C)C)C(=O)c1ccc(Br)cc1 ?
Kir21 inh: 0.06

How did COc1ccc(C2N(c3ccc(C)cc3)CCN2c2ccc(C)cc2)cc1O do in these assays?
Kir21 inh: -0.22

Results for CCc1nnc(NC(=O)c2ccc(S(=O)(=O)N3CCCCC3)cc2)s1 ?
Kir21 inh: 0.16

Results for O=C(Nc1ccc2[nH]c(=O)[nH]c2c1)c1ccc(Cl)c(Cl)c1 ?
Kir21 inh: 0.03

How did CC(C)=CCN1CCN(Cc2cccc3nonc23)CC1CCO (stereo unspecified) do in these assays?
Kir21 inh: 0.74

Results for N#CC(C(=O)Nc1ccc(Cl)c(Cl)c1)=C1Nc2ccccc2N1 ?
Kir21 inh: -0.87

How did CCOC(=O)N1CCC(NC(=O)C2CCCN(S(=O)(=O)c3cccnc3)C2)CC1 (stereo unspecified) do in these assays?
Kir21 inh: 1.44

How did COc1cccc(C(=O)NC(=O)Nc2cc(C)on2)c1 do in these assays?
Kir21 inh: 0.07

How did CCOc1ccc(-c2cn3ccccc3n2)cc1[N+](=O)[O-] do in these assays?
Kir21 inh: -0.49

What do the screens show for `COC(=O)c1ccccc1NC(=O)c1cc2ncc(Br)cn2n1`?
Kir21 inh: 0.12

Results for CCOC(=O)C1CCCN(C(=O)/C=C/c2cc(OC)c(OC)c(OC)c2)C1 (stereo unspecified) ?
Kir21 inh: 0.71

How did COc1ccc(CNC(=S)Nc2cccc(C)c2C)cc1 do in these assays?
Kir21 inh: 1.07

Results for O=c1cc(CSc2nnnn2-c2ccccc2)nc2sccn12 ?
Kir21 inh: -2.05

Results for O=C1CC(=O)N(Cc2cccs2)C(=O)N1 ?
Kir21 inh: -1.35

How did Cc1ccccc1S(=O)(=O)Cc1ccc(C(=O)N2CCN(c3cccc(C)c3C)CC2)o1 do in these assays?
Kir21 inh: 0.07

How did O=C(Nc1cc(S(=O)(=O)N2CCOCC2)ccc1-n1cncn1)c1ccc(Cl)cc1 do in these assays?
Kir21 inh: 1

What do the screens show for `CC(=O)/C(N=Nc1ccc2c(c1)OCCO2)=C(\C)O`?
Kir21 inh: -1.87

What do the screens show for `OC(COc1ccc(CNCCc2ccc(C(F)(F)F)cc2)cc1)CN1CCCCC1` (stereo unspecified)?
Kir21 inh: 0.66

How did COCCCn1c(Cc2ccccc2)nnc1SCC(=O)N1CCCCC1 do in these assays?
Kir21 inh: -1.29

Results for COCCNC(=O)Cn1cc(C(=O)c2cccs2)c2ccccc21 ?
Kir21 inh: -0.84

What do the screens show for `Cc1ccc(S(=O)(=O)N2CCN(C(=O)CSc3ccc(F)cc3)CC2)cc1`?
Kir21 inh: 0.19

What do the screens show for `CSc1nnc(-c2ccccc2SC)o1`?
Kir21 inh: -1.05

Results for Cc1ccc2cc(NC(=O)Cc3ccccc3)ccc2n1 ?
Kir21 inh: 0.88

How did O=C(Cc1ccccc1F)NC1CCCN(Cc2ccc(Cl)cc2)C1 (stereo unspecified) do in these assays?
Kir21 inh: -0.73

How did COC(=O)C1=C(C)N(C)C(=O)NC1c1ccc([N+](=O)[O-])o1 (stereo unspecified) do in these assays?
Kir21 inh: 2.64

What do the screens show for `Cc1ccc(C)c(NC(=O)Cn2nc(-c3ccccc3)nc2-c2ccccc2)c1`?
Kir21 inh: -2.49

Results for CC(C)NC(=O)CSc1ccccc1C(=O)NCc1ccc2c(c1)OCO2 ?
Kir21 inh: -1.82

How did CC(C)CCNC(=O)CNC(=O)c1cccs1 do in these assays?
Kir21 inh: 0.53

How did COc1nc(N2CCOCC2)nc(C)c1[N+](=O)[O-] do in these assays?
Kir21 inh: 0.19

What do the screens show for `COc1cccc(NC=C2C(=O)OC3(CCCCC3)OC2=O)c1`?
Kir21 inh: 0.66

How did CO/N=C(\N)c1ccc([N+](=O)[O-])cc1 do in these assays?
Kir21 inh: 0.16

What do the screens show for `Brc1ccc(CSc2nnc(-c3ccco3)o2)cc1`?
Kir21 inh: 3.36

What do the screens show for `NS(=O)(=O)c1ccc(CCNC(=O)COC(=O)CN2C(=O)C3CCCCC3C2=O)cc1` (stereo unspecified)?
Kir21 inh: -1.6

Results for CC(=O)c1c(C)[nH]c(C(=O)N2CCCC(C)C2)c1C (stereo unspecified) ?
Kir21 inh: -0.29

How did CCc1cccc(CC)c1NC(=O)CSc1nc2ccc(N3C(=O)C4C(C3=O)[C@H]3C=C[C@@H]4C3)cc2s1 (stereo partly specified) do in these assays?
Kir21 inh: 0.18

Of the compounds above, 7 have a furan ring, fused or not.
What do the screens show for `c1ccc2cc(Sc3ncnc4c3oc3ccccc34)ccc2c1`?
Kir21 inh: 0.14

How did CCC(=O)NC(=S)Nc1ccc(NC(=O)c2ccco2)c(OC)c1 do in these assays?
Kir21 inh: -0.05

How did O=C(Nc1ccc(NC(=O)c2ccco2)cc1)c1ccc2c(c1)OCCO2 do in these assays?
Kir21 inh: 0.31

What do the screens show for `Cc1ccc(-c2nn3c(-c4ccco4)nnc3c3ccccc23)cc1S(=O)(=O)NCC1CCCO1` (stereo unspecified)?
Kir21 inh: -0.12

How did Cc1ccccc1S(=O)(=O)Cc1ccc(C(=O)N2CCN(c3cccc(C)c3C)CC2)o1 do in these assays?
Kir21 inh: 0.07

How did COC(=O)C1=C(C)N(C)C(=O)NC1c1ccc([N+](=O)[O-])o1 (stereo unspecified) do in these assays?
Kir21 inh: 2.64

What do the screens show for `Brc1ccc(CSc2nnc(-c3ccco3)o2)cc1`?
Kir21 inh: 3.36
